High-throughput results (PubChem)
Mtb MenB inh: inhibitors of Mycobacterium tuberculosis MenB enzyme; 100,000 compounds, 0.43% hits; MenB enzyme assay, absorbance read-out; some hits fall short of the stated cut; AID 540299; P9WNP5; inhibition, %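 (about 12 µg/mL by stock and volumes)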;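 active means mean of two replicates above 30%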;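 further: 0% = no compound and 100% = wells with inactive enzyme; the first replicate is given; strong numbers were not always called active; inactives centre near -10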
MbtI inh: MbtI salicylate synthase inhibition; P9WFX0; inhibition, %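 (about 17 µg/mL by stock and volumes)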; 100,000 compounds, 0.89% hits; purified MbtI enzyme, fluorescence intensity read-out;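 active means above 50% in both replicates, above 80% if mildly self-fluorescent; inactive means the rest, strongly fluorescent compounds included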;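 further: 0% = mean of negative and 100% = mean of positive controls; one replicate is shown; some compounds called inactive have numbers as strong as hits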
Target sequence (P9WFX0 whole entry, looked up): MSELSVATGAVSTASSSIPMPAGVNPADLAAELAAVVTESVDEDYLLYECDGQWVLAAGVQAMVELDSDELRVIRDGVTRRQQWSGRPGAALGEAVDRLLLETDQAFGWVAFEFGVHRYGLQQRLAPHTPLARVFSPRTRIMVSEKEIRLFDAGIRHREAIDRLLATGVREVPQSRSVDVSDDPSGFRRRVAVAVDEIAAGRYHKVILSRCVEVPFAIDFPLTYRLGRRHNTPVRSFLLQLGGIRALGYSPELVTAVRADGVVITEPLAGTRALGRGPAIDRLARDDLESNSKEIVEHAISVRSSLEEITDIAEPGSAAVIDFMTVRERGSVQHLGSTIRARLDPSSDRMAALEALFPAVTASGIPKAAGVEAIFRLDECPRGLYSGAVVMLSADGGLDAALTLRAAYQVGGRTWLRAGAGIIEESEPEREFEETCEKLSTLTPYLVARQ
Polio RdRp inh: poliovirus RNA polymerase inhibition; 150,000 compounds, 0.66% hits; poliovirus polymerase elongation, fluorescence polarization; active compounds read low; % elongation, % (compound at 16.7 µg/mL); P03300; AID 588519; in the data active means % elongation below about 90%; further: some results filed as inactive read as strong as hits
Target sequence (P03300 1749-2209 limits assumed): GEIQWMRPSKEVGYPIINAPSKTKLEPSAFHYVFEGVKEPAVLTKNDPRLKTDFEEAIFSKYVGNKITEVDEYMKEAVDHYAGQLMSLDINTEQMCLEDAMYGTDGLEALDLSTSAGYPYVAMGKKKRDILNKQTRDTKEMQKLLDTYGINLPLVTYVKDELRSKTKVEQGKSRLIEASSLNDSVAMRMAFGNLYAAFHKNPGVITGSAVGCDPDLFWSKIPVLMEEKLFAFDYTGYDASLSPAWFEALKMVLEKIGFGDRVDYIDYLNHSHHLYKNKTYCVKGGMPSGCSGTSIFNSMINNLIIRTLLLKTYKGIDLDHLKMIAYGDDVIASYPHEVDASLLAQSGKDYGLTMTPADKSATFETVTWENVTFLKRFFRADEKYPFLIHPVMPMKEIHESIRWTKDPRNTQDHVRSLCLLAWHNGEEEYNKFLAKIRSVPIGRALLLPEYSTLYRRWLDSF
Polio RdRp inh intensity: recorded beside Polio RdRp inh, whose call it bears; % elongation; measured here: total intensity read-out; formula for this scale not given here;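 total fluorescence in place of polarization; lower means less elongation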
An asterisk follows results filed as active; x = not tested or not shown.

Assay codes: A = Mtb MenB inh; B = MbtI inh; C = Polio RdRp inh; D = Polio RdRp inh intensity
> CCN(CC)C(=O)CCc1nc(CN2CCN(S(=O)(=O)c3ccc(Br)cc3)CC2)no1
  A: 8; B: 5; C: 101; D: 101
> COc1cccc(N=Nc2c(N)[nH]n(-c3ccccc3)c2=O)c1
  A: -68; B: -5; C: 99; D: 102
> CCNc1cc(N2CCOCC2)c2noc3c2c1C(=O)c1ccccc1-3
  A: -10; B: -1; C: 75; D: 195
> CN(C)c1cccc(C(=O)OCC(=O)NCc2ccccc2)c1
  A: x; B: 6; C: 98; D: 101
> NC1=NS(=O)(=O)c2ccccc21
  A: -28; B: -4; C: 105; D: 99
> COc1ccc(C(=O)CSc2nnc(Cc3cccs3)n2C2CC2)cc1
  A: -13; B: -3; C: 107; D: 109
> COc1ccccc1C(=O)Nc1ccc(S(=O)(=O)NC2=NCCCCC2)cc1
  A: -28; B: 6; C: 102; D: 101
> CS(=O)(=O)N(Cc1ccccc1)Cc1nc2ccccc2c(=O)[nH]1
  A: -10; B: 3; C: 100; D: 102
> COc1ccc(NCc2csc(-c3ccccc3)n2)cc1Cl
  A: x; B: 5; C: 100; D: 102
> Cc1cc2nc3s/c(=C\c4ccc(-c5cccc(F)c5)o4)c(=O)n3c2cc1C
  A: -21; B: 16; C: 101; D: 105
> CNS(=O)(=O)c1cc(C(=O)Nc2nnc(C3CC3)s2)ccc1Cl
  A: 2; B: 26; C: 101; D: 97
> O=C(CCn1cccc1)N1CCN(c2ccccc2)CC1
  A: 1; B: -20; C: 100; D: 100
> Cc1cc(C)c2c(C(C)(C)C)nn(-c3ccc(C(=O)O)cc3)c2n1
  A: -3; B: -21; C: 100; D: 100
> Cc1ccc(C(=O)NCc2ccc3c(c2)cc(C)n3C)cc1
  A: -20; B: -10; C: 100; D: 98
> CC1=CCC(C(=O)Nc2nc3ccccc3s2)C(C(=O)O)C1 (stereo unspecified)
  A: -34; B: 0; C: 103; D: 101
> Cc1cc(N2CCN(C)CC2)ccc1NC(=O)c1ccc2c(c1)NC(=O)C(C)S2 (stereo unspecified)
  A: 4; B: 8; C: 104; D: 102
> O=C1c2ccccc2C(=Cc2cccs2)c2ccccc21
  A: -65; B: 14; C: 99; D: 101
> O=C(Nc1sc2c(c1C(=O)NCc1ccco1)CCC2)c1ccc(F)cc1
  A: x; B: 27; C: 104; D: 102
> CC(C)N(C(C)C)S(=O)(=O)c1ccc(N2CCC(C(N)=O)CC2)nc1
  A: -10; B: -8; C: 104; D: 98
> CCOC(=O)N1CCc2c(sc(NC(=O)c3ccc(S(=O)(=O)N4CCOCC4)cc3)c2C(=O)N2CCOCC2)C1
  A: -27; B: -5; C: 101; D: 99
> O=C(CC12CC3CC(CC(Br)(C3)C1)C2)Nc1nncs1
  A: x; B: -13; C: 102; D: 107
> O=S1(=O)CCC(NC2CCCCC2)C1 (stereo unspecified)
  A: 50*; B: -4; C: 99; D: 102
> O=C1Nc2ccccc2O/C1=C\c1ccc(C(=O)NC2CCCCC2)cc1
  A: -6; B: -16; C: 101; D: 98
> Cc1ccc(Cl)cc1N(C)C(=O)c1cc2c(C)nc3ccccc3c2o1
  A: -5; B: -4; C: 102; D: 101
> Cc1cc(C)n(C2=NCCN2C=C(C#N)C#N)n1
  A: -2; B: 14; C: 100; D: 102

Other compounds:
Assay codes: A = Mtb MenB inh; B = MbtI inh; C = Polio RdRp inh; D = Polio RdRp inh intensity
> Brc1cccc(-c2n[nH]c(-c3ccccc3)n2)c1
  A: 6; B: -14; C: 99; D: 102
> CCSc1nc(C)c(C)c(C)c1C#N
  A: -20; B: 3; C: 102; D: 108
> CC(c1ccccc1)n1c(OC(=O)N(C)C)nnc1SCC(=O)c1ccc2c(c1)OCCO2 (stereo unspecified)
  A: 2; B: -3; C: 108; D: 108
> O=C(c1cncc(NS(=O)(=O)c2ccc(Cl)cc2)c1)N1CCc2ccccc21
  A: -20; B: -6; C: 105; D: 97
> CCOc1ccc(N2CC(C(=O)Nc3ccccc3C(=O)N3CCOCC3)CC2=O)cc1 (stereo unspecified)
  A: -29; B: x; C: 103; D: 102
> CCn1nc(C)c(Br)c1-c1nc(CS(=O)(=O)c2ccc(F)cc2)no1
  A: -13; B: -3; C: 101; D: 103
> CCN(CC)/C(=N/OCc1ccc(Cl)cc1Cl)c1nonc1N
  A: -8; B: -7; C: 104; D: 104
> OC1(C(F)(F)F)CC(/C=C/c2cccs2)=NN1 (stereo unspecified)
  A: -8; B: x; C: 107; D: 104
> CCc1ccc(NC(=O)C(CC)Sc2nc3nccnc3c(=O)n2CCc2ccccc2)cc1 (stereo unspecified)
  A: 5; B: -8; C: 101; D: 105
> C/C(=N/O)c1[nH]c(C)c(/C(C)=N\O)c1C
  A: 17; B: 9; C: 103; D: 101
> Cn1c(SCc2ccccc2)nnc1C1CCN(C(=O)NCc2ccccc2)CC1
  A: 7; B: -5; C: 101; D: 99
> COC(=O)c1ccc(Cl)cc1NC(=O)N1CCC(CN2CCOCC2)CC1
  A: 3; B: 33; C: 101; D: 98
> Cn1c(SCC(=O)O)nc2ccccc21
  A: 37*; B: 6; C: 102; D: 101
> CCN(c1ccccc1)S(=O)(=O)c1cc2c(cc1C)n(C)c(=O)c(=O)n2C
  A: 0; B: 156; C: 104; D: 103
> CCCCC1(CO)C(=O)N(c2ccccc2)N(c2ccccc2)C1=O
  A: 11; B: -8; C: 103; D: 103
> Cc1ccc(NC(=O)CN2C(=O)S/C(=C/c3ccc(C)o3)C2=O)cc1
  A: -8; B: x; C: 133; D: 165
> CCOc1ccc(OCCOC(=O)c2ccc(O)cc2)cc1
  A: -21; B: -13; C: 99; D: 112
> O=C(NC1CCC(O)CC1)c1cc(Cl)c(O)c(Cl)c1 (stereo unspecified)
  A: -8; B: 4; C: 102; D: 95
> COc1cccc(CN(C)CCN)c1
  A: 22; B: -6; C: 103; D: 103
> COC(=O)c1ccc(-n2nnnc2SCC(=O)NC(C)(C)C)cc1
  A: -12; B: x; C: 98; D: 105
> CCC1CCCCN1C(=O)COc1ncnc2ccccc12 (stereo unspecified)
  A: x; B: -2; C: 103; D: 104
> COc1ccccc1NC(=O)Nc1nc(CC(=O)NCc2cccs2)cs1
  A: -13; B: -7; C: 103; D: 108
> Cc1cc(=O)oc2cc(OCC(=O)N3c4ccccc4CC3C)ccc12 (stereo unspecified)
  A: x; B: -12; C: 102; D: 99
> COc1cccc(C2=NC(C)(C)NC(c3ccccc3O)C2)c1 (stereo unspecified)
  A: -10; B: 26; C: 105; D: 109
> S=c1nn[nH]n1Cc1cccs1
  A: -33; B: 51; C: 100; D: 105

Further results.
Assay codes: A = Mtb MenB inh; B = MbtI inh; C = Polio RdRp inh; D = Polio RdRp inh intensity
> COC(=O)CSc1cc(C(C)(C)C)c(O)c(C(C)(C)C)c1
  A: x; B: -13; C: 103; D: 108
> COc1ccc(S(=O)(=O)NCc2ccccc2)cc1
  A: -11; B: -2; C: 100; D: 101
> CC(C)CCn1c(=O)c2ccccc2n2c(SCc3cc(Cl)cc4c3OCOC4)nnc12
  A: 14; B: 18; C: 103; D: 98
> CNS(=O)(=O)c1ccc2[nH]c(=O)cc(C)c2c1
  A: 5; B: 25; C: x; D: x
> Cc1ccccc1NCc1nc[nH]c1C
  A: -2; B: -20; C: 100; D: 102
> O=C(COC(=O)c1cccc(Cl)c1)NC12CC3CC(CC(C3)C1)C2
  A: x; B: -1; C: 97; D: 102
> c1ccc(-n2ncc3c(OCc4nc5ccccc5s4)ncnc32)cc1
  A: -43; B: 0; C: 101; D: 110
> CCOc1cc(-c2cc(I)c(O)c(OC)c2)cc(=O)c2c(C)oc(C)c12
  A: -16; B: 4; C: 102; D: 106
> CCc1nnc2c(Nc3ccc(O)cc3)nc3ccccc3n12
  A: -22; B: 31; C: 102; D: 101
> Cc1noc(C)c1/C=N/NC(=O)CC12CC3CC(CC(C3)C1)C2
  A: 1; B: 0; C: 100; D: 98
> COc1ccc(Nc2nc(NCCO)c3ccccc3n2)c(OC)c1
  A: -25; B: 3; C: 103; D: 98
> O=C(O)c1cc(NC(=O)c2cccs2)cc(C(=O)O)c1
  A: 1; B: 6; C: 102; D: 101
> COC(=O)c1ccc(NC(=O)C(C)C)cc1
  A: -7; B: x; C: 109; D: 111
> CCC(c1nnnn1Cc1ccco1)N(Cc1cccs1)Cc1cc2c(C)cc(C)cc2n2nnnc12 (stereo unspecified)
  A: -11; B: -1; C: 102; D: 105
> Cn1nc(C(F)(F)C(F)F)cc1-c1ccccc1O
  A: 3; B: -4; C: 102; D: 102
> O=C(COc1ccc(-n2ccnc2)cc1)Nc1cccc(Cl)c1
  A: -56; B: -3; C: 99; D: 95
> c1ccc2c(c1)C(Nn1cnnc1)=N/C2=N\n1cnnc1
  A: -12; B: -6; C: 101; D: 107
> COC(CNC(=O)c1cc(=O)[nH]c2ccc(Br)cc12)OC
  A: 5; B: 7; C: 104; D: 106
> Cc1cc2cc(CNC(=S)NC(C)(C)C)ccc2n1C
  A: -55; B: -12; C: 103; D: 106
> O=C1C2(CCC13COC(c1cc(Br)ccc1O)OC3)COC(c1cc(Br)ccc1O)OC2 (stereo unspecified)
  A: -3; B: 2; C: 101; D: 106
> O=C(CSc1ncnc2nc[nH]c12)N1CCOCC1
  A: -16; B: -1; C: 100; D: 103
> Cc1c2cnn(-c3ccccc3)c(=O)c2c(C)n1CC(=O)NC(C)C
  A: 2; B: 7; C: 102; D: 106
> O=S(=O)(c1ccccc1)N(c1ccccc1)c1ccccc1
  A: 4; B: x; C: 104; D: 109
> Oc1ccc2c(c1)oc1cc(O)ccc12
  A: -4; B: 116; C: 101; D: 101
> Clc1ccc(SCCCCn2cncn2)cc1
  A: -13; B: -10; C: 104; D: 101

Next section.
Assay codes: A = Mtb MenB inh; B = MbtI inh; C = Polio RdRp inh; D = Polio RdRp inh intensity
> CC(=O)N(Cc1cc2cc(C)c(C)cc2n2nnnc12)CC1COCCO1 (stereo unspecified)
  A: -59; B: 0; C: 103; D: 103
> O=C1C2C3CC4C5C3C1C5C(F)(F)C42 (stereo unspecified)
  A: -13; B: 10; C: 106; D: 107
> CCCNC(=O)CN1CCN(Cc2ccc(OCCC(C)C)cc2)CC1
  A: 6; B: 2; C: 93; D: 89
> CCOC(=O)C1CCCN(C(=O)c2cc3cc4ccc(OC)cc4nc3o2)C1 (stereo unspecified)
  A: -25; B: 106; C: 102; D: 104
> CC(=O)NC1C(=O)N(c2ccccc2)N=C1C (stereo unspecified)
  A: -29; B: 2; C: 102; D: 102
> S=c1[nH]nc(Cn2cnc3ccccc32)n1-c1ccccc1
  A: -18; B: 50; C: 99; D: 101
> CCN1CCN(c2ccc(Nc3ccnc4cc5ccccc5cc34)cc2)CC1
  A: 5; B: 4; C: 101; D: 105
> O=C(Cn1ccc2ccccc21)Nc1cccc(C(F)(F)F)c1
  A: -19; B: x; C: 105; D: 110
> COc1ccc(OCc2nnc(SC(C)C(=O)Nc3ccc(N4CCOCC4)cc3)n2C)cc1 (stereo unspecified)
  A: -1; B: -4; C: 103; D: 104
> CCN1C(=O)SC(CC(=O)O)C1=O (stereo unspecified)
  A: -33; B: -5; C: 104; D: 101
> CCCn1c(C)cc(/C=C(\C#N)C(=O)N(CC)c2nc3c(C)cccc3s2)c1C
  A: -15; B: 5; C: 100; D: 107
> Cn1c(C(=O)O)c(CNCCC2=CCCCC2)c2ccccc21
  A: -30; B: -8; C: 102; D: 97
> Cc1ccc(Cl)cc1N1CC(O)=C(c2nc3ccccc3c(=O)[nH]2)C1=N
  A: 16; B: 89; C: 103; D: 106
> O=C(CN1CCCc2ccccc21)NN1C(=O)NC2(CCCCC2)C1=O
  A: -31; B: -13; C: 101; D: 108
> O=C(COC(=O)c1ccc(Cl)cc1)NCC1CCCCC1
  A: x; B: -11; C: 103; D: 99
> COc1ccc(C(=O)OCC[N+]2(C)CCOCC2)cc1
  A: -14; B: 14; C: 105; D: 104
> Cc1nn(C)c(C)c1NS(=O)(=O)/C=C/c1ccccc1
  A: -2; B: 9; C: 100; D: 104

Structural class, those above with an NH in an aromatic ring
Assay codes: A = Mtb MenB inh; B = MbtI inh; C = Polio RdRp inh; D = Polio RdRp inh intensity
> COc1cccc(N=Nc2c(N)[nH]n(-c3ccccc3)c2=O)c1
  A: -68; B: -5; C: 99; D: 102
> CS(=O)(=O)N(Cc1ccccc1)Cc1nc2ccccc2c(=O)[nH]1
  A: -10; B: 3; C: 100; D: 102
> Brc1cccc(-c2n[nH]c(-c3ccccc3)n2)c1
  A: 6; B: -14; C: 99; D: 102
> C/C(=N/O)c1[nH]c(C)c(/C(C)=N\O)c1C
  A: 17; B: 9; C: 103; D: 101
> S=c1nn[nH]n1Cc1cccs1
  A: -33; B: 51; C: 100; D: 105
> CNS(=O)(=O)c1ccc2[nH]c(=O)cc(C)c2c1
  A: 5; B: 25; C: x; D: x
> Cc1ccccc1NCc1nc[nH]c1C
  A: -2; B: -20; C: 100; D: 102
> COC(CNC(=O)c1cc(=O)[nH]c2ccc(Br)cc12)OC
  A: 5; B: 7; C: 104; D: 106
> O=C(CSc1ncnc2nc[nH]c12)N1CCOCC1
  A: -16; B: -1; C: 100; D: 103
> S=c1[nH]nc(Cn2cnc3ccccc32)n1-c1ccccc1
  A: -18; B: 50; C: 99; D: 101
> Cc1ccc(Cl)cc1N1CC(O)=C(c2nc3ccccc3c(=O)[nH]2)C1=N
  A: 16; B: 89; C: 103; D: 106
